nsP2pro inh = inhibitors of chikungunya virus nsP2 protease | FRET peptide cleavage, nsP2pro, fluorescence 1 h | Potency, µM (doses to about 24.9 µM), inactives show at the top dose activity change, negative = inhibition, most hits filed as inhibitors | 1.1% of 31,000 active; active means well fitted inhibition curve with a large enough effect; inconclusive means small, poorly fitted or top-dose-only effect; inactive means no such curve, though single readings can be large or run the other way; note: nearly all actives have a fitted effect of over 60% in size; a reference inhibitor and vehicle were the controls
* marks the source's active call; other numbers are inactive results; i = inactive; u = inconclusive; & = joins results of further samples; [ ] = another dose, or the depositor's remark. % is set by controls: 0 for no effect and ±100 for the full control effect; potency is the fitted concentration of half-maximal effect. Some of the compounds tested (hit frequency here may not be typical).

SMILES | nsP2pro inh
COc1cccc(NC(=O)CCNS(=O)(=O)c2ccc3c(c2)oc(=O)n3C)c1 | -3.7%
CCN(CC)CCCC(C)Nc1c2ccc(Cl)cc2nc2ccc(OC)cc12 (stereo unspecified) | -2.8%&-4.2%[10 µM]
CNc1ccc(C(=O)NCCCc2c(C)noc2C)cn1 | i
O=C(CCC1N=C2c3ccccc3N=C(SCc3cccc(F)c3)N2C1=O)NCc1ccc(F)cc1 (stereo unspecified) | -3.9%
CCCCOc1ccc(S(=O)(=O)n2c(C)nc3ccccc32)cc1 | -0.1%[10 µM]
Cc1ccc(-n2c(CCC(=O)O)ccc2-c2cccs2)cc1C | 8.5%
Cc1ccccc1C(=O)N1CCc2cc(-c3cccc(NC(=O)Cc4ccc5c(c4)OCO5)c3)ccc21 | -2.8%
CCOC(=O)c1ccccc1C(=O)OCC | 3.8%
CCN(CC)CCCNC(=O)Cc1csc2nc(-c3ccc(Cl)cc3)cn12 | 11.6%
O=S(=O)(c1ccc2c(c1)OCO2)N1CCN(S(=O)(=O)c2c(F)cccc2F)CC1 | -2.6%
Cn1nnc2c(N3CCN(c4cccc(C(F)(F)F)c4)CC3)ncnc21 | -12.7%
CCOc1ccccc1OCCN[C@H](C)Cc1ccc(OC)c(S(N)(=O)=O)c1 | 1.7%&6.7%
Cc1cccc(CCNC(=O)c2cc3c(=O)n(C)c4ccccc4c3n2C)c1 | -7.5%
Nc1ccc2c(c1)S(=O)(=O)NC2=O | 3.9%
O=C(Cn1ccc2cc(S(=O)(=O)N3CCCCCC3)ccc21)NCc1cccc(Cl)c1 | -2.6%
CCn1c(/C(C#N)=C/c2ccccc2Cl)nc2ccccc21 | -8.8%
COc1ccc(CCNC(=O)C(CC(C)C)N2Cc3ccccc3C2=O)c(OC)c1OC (stereo unspecified) | -15.6%
O=C(CCc1nc2ccccc2s1)NC1CCc2n[nH]c(=O)n2CC1 (stereo unspecified) | 1.4%
CCS(=O)(=O)n1nc(-c2ccco2)nc1NCc1ccc(C(C)C)cc1 | u
O=C1CC(c2nc3ccccc3n2Cc2c(F)cccc2Cl)CN1c1cccc(C(F)(F)F)c1 (stereo unspecified) | -7.2%
COc1ncc(-c2ccc3c(Nc4cc(Oc5cc(F)cc(F)c5)cc(C(=O)O)c4)c(S(=O)(=O)NC4CC4)cnc3c2)c(OC)n1 | 35.5%[activator]
Cc1cccc(C)c1OCC(=O)Nc1ncn[nH]1 | -6.6%
O=S(=O)(c1ccccc1)N1CCN(c2nccc(-c3cccs3)n2)CC1 | -4.9%
Cc1ccccc1-n1c(CF)nc2ccc(N)cc2c1=O | 4.9%
O=C(CCn1cnc2onc(-c3ccc(F)cc3)c2c1=O)Nc1cccc(C(F)(F)F)c1 | 6.1%

Next section
SMILES | nsP2pro inh
CCNc1nccc(N2CCC(CC(=O)NCC(C)C)CC2)n1 | i
O=S(=O)(Nc1nc2n(n1)C(c1ccccc1)C=C(c1ccc(Cl)cc1)N2)c1ccccc1 (stereo unspecified) | -18.1%
Fc1ccccc1N1CCN(c2ncc3c(n2)CCN(Cc2cc(Br)cs2)C3)CC1 | -16.0%
COc1cc(-c2ccc3ncnc(NCc4cccs4)c3c2)cc(OC)c1OC | 3.3%
O=C(O)C1=NOC2CN(Cc3cscn3)CC12 (stereo unspecified) | -12.4%[39.2 µM]
Cc1cccc(C)c1NC(=O)Cn1c(=O)n(CCCS(=O)(=O)C2CCCCC2)c(=O)c2ccccc21 | -15.3%
CCOc1ccc(C(=O)Oc2ccc(-c3nc4ccccc4[nH]3)cc2)cc1 | -8.3%
Cc1ccc(C(=O)N2CCCCCNC(=O)CC2c2ccccc2)s1 (stereo unspecified) | 1.6%
O=C(Nc1ccc2nc(SCC(=O)N3CCc4ccccc43)sc2c1)c1cccc(Cl)c1 | -15.9%
C=C1OC2CC(C(=O)O)C=CC2NC1=O (stereo unspecified) | 11.8%
COc1ccc(NC(=O)CN2C(=O)N/C(=C\c3cccn3-c3ccc(C(=O)NC#N)cc3)C2=O)cc1 | i
COc1cc(CC2COC(c3ccc(OC4OC(CO)C(O)C(O)C4O)c(OC)c3)C2CO)ccc1O (stereo unspecified) | -2.2%[10 µM]
CCS(=O)(=O)N[C@@H]1CN(Cc2ccccc2)C[C@H]1CN(C)C | -9.6%
Cc1ccccc1C(=O)N1CCc2cc(N3CCC(NC(=O)Cc4ccccc4)C3)ccc21 (stereo unspecified) | i
Cc1ncsc1CCCl | 0.1%
CCN(CC)c1cc2c(cc1F)c(=O)c(S(=O)(=O)c1ccccc1)cn2C | -20.9%
COCC(=O)N[C@H]1C[C@@H](CO)N(Cc2ccc(Br)o2)C1 | -27.8%
Cc1c2cnn(CC(=O)N3CCN(c4ccccc4)CC3)c(=O)c2c(C)n1Cc1ccccc1Cl | -21.9%
CCSc1ncc(Cl)c(C(=O)Nc2sc3c(c2C(=O)NC)CCCC3)n1 | -17.6%
CSc1nc2cc(Oc3cccc(Cl)c3Cl)c(Cl)cc2[nH]1 | 12.7%&95.7%
COc1ccc(NS(=O)(=O)c2ccccc2)cc1NS(=O)(=O)c1ccccc1 | 1.2%
COc1ccccc1NC(=O)c1cnc(SCC(=O)N2CCCc3ccccc32)n(C)c1=O | -8.2%
CCOc1ccc(OCC)c(NC(=O)CN(C)S(=O)(=O)c2ccc3[nH]c(=O)oc3c2)c1 | -10.5%
Cc1cc(C(=O)N2CCCn3ccnc3C2c2ccccc2)n(C)n1 (stereo unspecified) | i
CCCN1CCN(C(=O)c2ccc3c(c2)n(CC)c(=O)c2ccnn23)CC1 | -4.6%

Four compounds from above, arranged by SMILES length, low to high:
SMILES | nsP2pro inh
CSc1nc2cc(Oc3cccc(Cl)c3Cl)c(Cl)cc2[nH]1 | 12.7%&95.7%
O=C(Nc1ccc2nc(SCC(=O)N3CCc4ccccc43)sc2c1)c1cccc(Cl)c1 | -15.9%
CCOc1ccc(OCC)c(NC(=O)CN(C)S(=O)(=O)c2ccc3[nH]c(=O)oc3c2)c1 | -10.5%
Cc1cccc(C)c1NC(=O)Cn1c(=O)n(CCCS(=O)(=O)C2CCCCC2)c(=O)c2ccccc21 | -15.3%

Other structures.
SMILES | nsP2pro inh
Cc1cc(C2CCCN2C(=O)c2ccc(F)c(F)c2)on1 (stereo unspecified) | -3.8%
Cc1c(C(O)(c2ccccc2)c2ccccc2)[n+]2ccccc2n1C | -8.0%
Cc1[nH]c(=O)[nH]c(=O)c1CC(=O)N[C@@H]1COCC[C@@H]1OCc1ccccc1 | i
COc1ccccc1C(=O)N1CCCN(c2nnc3ccccn23)CC1 | 2.4%
COc1ccc(OC)c(CNS(=O)(=O)c2ccc(-c3coc(C)n3)cc2)c1 | -13.5%
O=C1CC(c2ccccc2)Cc2[nH]c(=O)c(C(=O)Nc3cccc(Cl)c3)cc21 (stereo unspecified) | -13.7%
COc1cccc(CCC(=O)N2CCC3(CC2)NC(=O)N(c2cccc(F)c2)N3)c1 | 4.9%
Cc1ccc(O[C@H]2CCOC[C@H]2NC(=O)CCc2c(C)noc2C)cn1 | 0.1%
COc1ccccc1CCNC(=O)c1cc2ccccn2n1 | -16.3%
C[C@@]12CCCCC[C@@H](Cc3ccc(O)cc31)[C@H]2N | -8.4%
COc1cc(OC)c(C(CC(=O)N2CC(C)CC(C)C2)c2ccc3c(c2)OCO3)c(OC)c1 (stereo unspecified) | -1.0%[39.2 µM]
Cc1cc(C)c(NC(=O)N(Cc2ccc3c(c2)Cc2ccccc2-3)C2CCCCCC2)c(C)c1 | -0.8%
COc1ccc(CNC(=O)CCc2c(C)c3cc4c(C)coc4c(C)c3oc2=O)cc1OC | -18.7%
COc1ccc(CCNC(=O)CCc2c(C)nc3c(-c4ccc(F)cc4)c(C)nn3c2C)cc1OC | -14.8%
COc1ccc(Nc2ccc3cc(S(=O)(=O)N4CCCC4)ccc3n2)cc1OC | -8.8%
CC(C)(C)OC(=O)N1CCC(c2c(C(=O)NCCc3ccccc3)cnn2-c2ccc(F)cc2F)CC1 | 3.8%
Cc1ccc(-c2onc(C)c2C)cc1S(=O)(=O)Nc1ccccn1 | -4.6%
CCC(=O)Oc1ccc2c(c1)CC[C@@H]1[C@@H]2CC[C@@]2(C)[C@H]1C[C@@H](OC(=O)CC)[C@@H]2OC(=O)CC | 0.5%
Cc1ccc(NC(=O)CSc2c3c(nc4ccccc24)CCCC3)cc1F | -25.9%
Cc1ccc(NS(=O)(=O)c2ccc3c(c2)N(C)C(=O)CO3)cc1C | 1.3%
CC(Cc1ccc(O)cc1)NCC(O)c1cc(O)cc(O)c1 (stereo unspecified) | -3.3%
CNc1cc(C2CC(NC(=O)COc3ccc(Cl)cc3C)C2)nc(N)n1 (stereo unspecified) | -26.8%
Oc1ccc(CNc2ccc(C(F)(F)F)cc2Cl)c2cccnc12 | i
C[C@H]1C[C@H]2[C@@H]3CCC4=CC(=O)C=C[C@]4(C)[C@@]3(F)[C@@H](O)C[C@]2(C)[C@@]1(O)C(=O)COP(=O)(O)O | 4.0%
CC1(C)CCCC2(C)C1CC(=O)C13CC(CCC12)C(O)(CO)C3 (stereo unspecified) | u

Rewritten as labelled records: 4 of the compounds above
> COc1ccc(CNC(=O)CCc2c(C)c3cc4c(C)coc4c(C)c3oc2=O)cc1OC
  nsP2pro inh: -18.7%
> COc1ccc(CCNC(=O)CCc2c(C)nc3c(-c4ccc(F)cc4)c(C)nn3c2C)cc1OC
  nsP2pro inh: -14.8%
> COc1ccc(Nc2ccc3cc(S(=O)(=O)N4CCCC4)ccc3n2)cc1OC
  nsP2pro inh: -8.8%
> CC(C)(C)OC(=O)N1CCC(c2c(C(=O)NCCc3ccccc3)cnn2-c2ccc(F)cc2F)CC1
  nsP2pro inh: 3.8%

Continued.
SMILES | nsP2pro inh
Cc1ccc(CNC(=O)c2cn(C)c3ccc(S(=O)(=O)N4CCOCC4)cc3c2=O)cc1 | -8.7%
CCCSCCCNC(=O)c1ccc2nc(Cc3ccccc3)oc2c1 | -17.6%
CC(=O)OCC(=O)[C@@]12N=C(C)O[C@@H]1C[C@H]1[C@@H]3CCC4=CC(=O)C=C[C@]4(C)[C@H]3[C@@H](O)C[C@@]12C | -1.5%
CC[C@H]1C2CC3[C@@H]4N(C)c5ccccc5[C@]45C[C@@H]([C@H]2[C@H]5O)N3[C@@H]1O | -1.0%
CCOC(=O)C1CCCN(CC(=O)N2CCCc3c2c(=O)oc2ccc(OCc4ccccc4)cc32)C1 (stereo unspecified) | u
Cc1c(C(=O)NCCc2ccccc2)cccc1-n1cnc2cccnc21 | -11.1%
Cc1ncc(CNC(=O)N(CCCl)N=O)c(N)n1 | -2.0%
CCn1nc(-c2ccccc2)c(-c2ccccc2)c(C(=O)Nc2ccc(S(N)(=O)=O)cc2)c1=O | -20.5%
CCN(CCCNC(=O)c1cc2c(=O)[nH]c3ccc(C)cc3c2s1)Cc1ccccc1 | 58.1%[activator]
Cc1cc(C(=O)Nc2cccc(C(F)(F)F)c2)c2c(C)nn(-c3cccc(F)c3)c2n1 | 46.5%
COc1ccc(-c2ccc3nc(-c4ccccc4Br)oc3c2)c(OC)c1OC | -5.1%
COc1cccc(CCC(=O)NC2CCc3nn(CC4CC4)c(=O)n3CC2)c1 (stereo unspecified) | 1.7%
COc1ccc(C2=NOC3(CCN(Cc4cccn4C)C3)C2)cc1 (stereo unspecified) | -22.9%[39.2 µM]
O=C(CSc1nnc(-c2ccccc2F)o1)N1CCc2ccccc21 | -15.1%
COc1ccc(C(=O)Nc2nc3c(s2)C[C@@H]2[C@](C)(CO)[C@H](O)CC[C@@]2(C)[C@@H]3CC(=O)NC2CCCC2)cc1 | -23.6%
COCCNC(=O)C[C@@H]1C[C@@H](C(C)C)[C@H](CNC(=O)c2cnccn2)C=C1C | 1.6%[39.2 µM]
CC1OC(O[C@@H]2[C@H](O)[C@@H](OC3OC(CO)C(O)C(O)C3O)[C@H](OC(=O)[C@]34CCC(C)(C)C[C@H]3C3=CCC5[C@@]6(C)CC[C@H](O[C@@H]7O[C@H](C(=O)O)[C@@H](O)[C@H](O[C@@H]8OC[C@@H](O)[C@H](O)[C@H]8O)[C@H]7O[C@@H]7O[C@H](CO)[C@H](O)[C@H](O)[C@H]7O)[C@@](C)(C=O)C6CC[C@@]5(C)[C@]3(C)C[C@H]4O)O[C@@H]2C)C(O)C(O)C1OC1OCC(O)C(O)C1O (stereo partly specified) | -14.3%[2.68 µM]
CC(=O)OCC(=O)NCCCOc1cccc(CN2CCCCC2)c1 | 4.9%
N[C@@H](Cc1ccc(O)c(O)c1)C(=O)O | 11.6%[0.199 µM]
CCC(=O)N1CCc2cc(Br)cc(S(=O)(=O)N(CC)Cc3ccccc3)c21 | -17.1%
COc1ccc(-c2ccc3nnc(-c4ccccc4OC)n3n2)cc1OC | 1.9%
COc1ccc(C2Nc3ccccc3C(=O)N2Cc2ccc(CNC(=O)CO)cc2)cc1COc1ccc(NC(C)=O)cc1 (stereo unspecified) | i
O=C(CCc1nnn2c1CN(C(=O)NCCc1ccccc1)CC2)NC1CC1 | u
Cc1cccc(S(=O)(=O)N2CCC[C@@H]2CCN2CCC(C)CC2)c1 | -5.6%
CCCC(=O)O[C@]1(C(=O)CO)CC[C@H]2[C@@H]3CCC4=CC(=O)CC[C@]4(C)[C@H]3[C@@H](O)C[C@@]21C | 3.7%
C/C=C(/C)C(=O)OC1C(OC(C)=O)C23C(O)OC4(CCC5C6(C)CCC(OC7OC(C(=O)O)C(O)C(OC8OC(CO)C(O)C(O)C8OC8OC(C)C(O)C(O)C8OC8OCC(O)C(O)C8O)C7OC7OC(CO)C(O)C(O)C7O)C(C)(C)C6CCC5(C)C4(C)CC2OC(C)=O)C3CC1(C)C (stereo unspecified) | -7.4%[5.1 µM]
Cc1ccc(C)c(N2CCN(C(=O)Cn3nc(Cc4cccnc4)c4ccccc4c3=O)CC2)c1 | 2.3%
Fc1ccccc1N1CCN(c2nc3ccccc3c3nc(-c4ccccc4)nn23)CC1 | -15.7%
CC(=O)c1ccc(NC(=O)c2cnn3c(C)cc(C)nc23)cc1 | 3.2%

Source: PubChem (National Center for Advancing Translational Sciences (NCATS))
